HCMV NEC inh: inhibitors of HCMV UL50-UL53 nuclear egress complex interaction | HTRF UL50-UL53 interaction, normalized percent inhibition | inhibition, % (no concentration beside the values) | 190,000 tested, 0.15% active | AID 1918969;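 active = both replicates at 50% or more, plus weaker picks with an unusually low signal ratio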;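 also: stock transfer was 100 nL into about 20 µL; 0% = negative control wells and 100% = wells with untagged competitor protein; inactives centre near -12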
GIV-Gai inh: GIV-Galpha-i interaction inhibition; Galpha-i3/FITC-GIV peptide fluorescence polarization, 90 min; stronger effect = lower value; scaled: aluminum fluoride 0%, vehicle 100%; percent of control (FP), % (test concentration not listed); AID 1224905; 210,000 tested, 0.42% active;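 active = replicate mean at 85% of control or lower, very high polarization wells dropped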;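 also: wells of about 15 µL received 100 nL stock; the first replicate is given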
Target sequence (P08753 whole entry, looked up): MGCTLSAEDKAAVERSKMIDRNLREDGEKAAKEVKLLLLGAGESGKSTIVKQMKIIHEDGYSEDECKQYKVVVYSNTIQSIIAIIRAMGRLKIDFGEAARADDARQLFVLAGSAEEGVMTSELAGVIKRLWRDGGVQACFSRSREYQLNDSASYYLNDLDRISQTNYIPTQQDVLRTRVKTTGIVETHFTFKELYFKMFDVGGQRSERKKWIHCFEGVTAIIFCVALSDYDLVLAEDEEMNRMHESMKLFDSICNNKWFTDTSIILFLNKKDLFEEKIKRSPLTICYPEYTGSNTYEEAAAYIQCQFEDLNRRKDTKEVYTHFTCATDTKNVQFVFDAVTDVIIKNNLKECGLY
Sa growth 42C: inhibitors of Staphylococcus aureus growth at 42 °C; S. aureus RN4220 growth, OD600, 20 h; stronger effect = lower value; 170,000 tested, 0.53% active; AID 720641; relative growth, % (test concentration not listed);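 active = growth at 42 °C up to 50% and 20 or more points under that at 30 °C, or under 10% at both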;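 also: 300 nL library stock went into each well; scaled to the means of positive and negative controls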
Sa growth 42C second temp: also measured in Sa growth 42C; calls as there; relative growth, %; measured here: growth at 30 °C;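 optical density after 20 h as mean of two plates; 100% = untreated growth and lower means inhibition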
Active calls of the source: *; . = not tested or not shown; & = joins results of further samples.

SMILES | HCMV NEC inh | GIV-Gai inh | Sa growth 42C | Sa growth 42C second temp
CC(C)Oc1ccc(C(=O)NC(=S)N2CCOCC2)cc1 | 7 | 108 | 119 | 98
NC(N)=NS(=O)(=O)Cc1ccccc1 | -6 | 111 | 99 | 96
O=C(c1ccco1)N1CCN(C(=O)C2CC(=O)N(c3ccccc3)C2)CC1 (stereo not given) | -36 | 103 | 98 | 96
CC1=C(C(=O)NCc2ccccc2Cl)C2(CCN(S(C)(=O)=O)CC2)OC1=O | -22 | 115 | . | .
CCCCNC(=O)c1ccc2c(c1)ncn2-c1cc(OC)ccc1OC | . | 113 | 126 | 97
CC1CCN(Cc2ccc(NC(=O)Nc3cn(C)c(=O)c4ccccc34)cc2)CC1 | . | 102 | 84 | 86
CCOc1c(NCc2ccc(Cl)cc2)c(=O)c1=O | -41 | 97 | . | .
N=c1occ(C(=O)c2cc(Cl)ccc2O)cc1C(=O)NC1CC1 | -12 | . | 104 | 83
Cc1ccccc1C(=O)Oc1ccc(C#N)cc1 | -2 | 105 | 90 | 102
COc1cc(OC)cc(C(=O)NCC(=O)N2CC(C)CC(C)C2)c1 (stereo not given) | -22 | . | 80 | 94
Cn1c(-c2ccccc2)c(/C=N/NC(=O)c2cccs2)c2ccccc21 | -25 | . | 85 | 89
O=C(c1cc2n(n1)CCCN(Cc1ccccc1)C2=O)N1CCN(c2ccccc2)CC1 | -30 | 103 | . | .
c1ccc(-c2nc(-c3ccc(-c4ccon4)s3)no2)cc1 | 3 | 97 | 105 | 121
Cc1cc(Nc2cccc3nsnc23)n2ncnc2n1 | -93 | 95 | . | .
Cc1ccc(CNc2nc3ccc(Cl)cc3n3cnnc23)cc1 | -2 | 104 | 99 | 92
CC(C)(C)C(=O)Nc1cccc(-c2cc(-c3c(Cl)cccc3Cl)no2)c1 | 9 | 104 | 110 | 99
COC(=O)CC1C(=O)NCCN1C(=O)c1ccc(Cl)cc1 (stereo not given) | -26 | . | 99 | 91
CCS(=O)(=O)c1ccc(O)c(N=Cc2ccc[nH]2)c1 | -31 | . | 130 | 92
COc1ccc(CNC(=O)Cn2c(=O)nc(-c3ccccc3F)c3cc(Cl)ccc32)cc1 | . | 102 | 86 | 88
Cc1nc(C)c(C(=O)N2CCN(c3ccc(-c4noc(C5CCC5)n4)cc3)CC2)s1 | -17 | 101 | . | .
CCOC(=O)c1c(NC(=O)c2ccccc2)sc2c1CCCC2 | -8 | . | 105 | 90
Clc1cccc(Cl)c1-c1noc(-c2ccno2)n1 | 0 | 101 | 115 | 74
Cc1[nH]c2ccc(F)cc2c1CCNC(=O)c1cc2cc(Cl)ccc2oc1=O | -15 | 106 | 121 | 91
Cn1c(O)c(C2=c3ccccc3=NC2=O)c2ccccc21 | -4 | 105 | 104 | 98
CCc1c(C)sc2c1CCN(Cc1cccc(F)c1)C2c1ccccc1 (stereo not given) | . | 111 | -1.3* | -0.6*
Cc1ccc(OCC(=O)N(Cc2ccc(Cl)cc2)Cc2ccco2)cc1C | -5 | 105 | 102 | 88
Cc1onc(-c2ccccn2)c1C(=O)NCCc1c[nH]c2ccccc12 | 11 | 99 | . | .
CC(=O)Nc1ccc(OC(=O)c2cccs2)cc1 | -7 | 99 | 104 | 115
COc1ccc(C2CC(=O)Nc3c2c(=O)[nH]c2nc4ccccc4n32)cc1OC (stereo not given) | 24 | 98 | 103 | 104
CN1c2ccccc2-c2nc(SCC(=O)c3ccc4c(c3)OCO4)ncc2S1(=O)=O | -5 | 108 | 88 | 83
N#Cc1c(N2CCCC(O)C2)nc(N)c2c(N)nc3c(c12)CC(=O)N3C12CC3CC(CC(C3)C1)C2 (stereo not given) | 80* | . | 100 | 73
CCOC(=O)C1CCCN(c2c(C(=O)c3ccc(C)cc3)cnc3ccc(OCC)cc23)C1 (stereo not given) | -9 | 104 | 96 | 86
Cc1ccc(-c2csc(CC(N)=O)n2)cc1 | -21 | . | 114 | 92
COc1ccc(Br)cc1CN(C)C(=O)c1ccno1 | -14 | . | 99 | 87
COc1ccc(CC(=O)Nc2cccc(-c3ccc4nncn4n3)c2)cc1 | -99 | 106 | 89 | 71
Cc1cc(F)ccc1S(=O)(=O)Nc1cc2c(C(=O)O)c(C)oc2c2ccccc12 | -6 | 106 | 105 | 69
Cc1cccc(N2CCN(C(=O)c3cnn(-c4ccc(F)cc4F)c3C3CCN(C(=O)OC(C)(C)C)CC3)CC2)c1C | . | 111 | 86 | 93
CCc1cccc(NS(=O)(=O)c2ccc3c(c2)N(CC(=O)OC)C(=O)CS3)c1 | . | 104 | 102 | 87
COc1ccc(C2=NN(CC(=O)NCc3ccc4c(c3)OCO4)C(=O)CC2)cc1 | . | 101 | 122 | 87
O=C(COC(=O)c1ccccc1)NCC1CCCO1 (stereo not given) | 7 | . | 92 | 101
CC(OC(=O)c1nsc(Cl)c1Cl)C(=O)NCc1cccs1 (stereo not given) | -1 | 104 | 73 | 87
CCCCC#Cc1cncc(C(=O)O)c1 | -29 | 108 | 91 | 92
CCC(CC)C(=O)Nc1nc(-c2ccccc2)cs1 | -9 | 103 | 91 | 87
S=C(Nc1ccccc1)N1CCn2cccc2C1c1cccs1 (stereo not given) | 0 | 101 | 104 | 85
CC(C)c1ccc(-c2c3c(nc4ncnn24)-c2ccccc2C3=O)cc1 | -20 | 108 | 98 | 90
COc1ccc(OC(C)C(=O)Nc2ncn[nH]2)cc1 (stereo not given) | 2 | 107 | 106 | 103
CN1C(=CC#N)N(C)c2ccccc21 | -16 | . | 89 | 90
COc1ccccc1CNS(=O)(=O)c1cnc(N)nc1 | . | 106 | 96 | 84
COc1cccc(C2=CC(c3cc(Br)ccc3F)n3nnnc3N2)c1 (stereo not given) | . | 104 | 107 | 86
O=C(/C=C/c1ccccc1)N1CCC(C(=O)N2CCN(C3CCS(=O)(=O)C3)CC2)CC1 (stereo not given) | -23 | . | 91 | 90
CCC(C(=O)O)n1nnc(-c2ccc(OCc3ccccc3)c(OC)c2)n1 (stereo not given) | -19 | 103 | 87 | 86
CCOC(=O)c1oc2ccccc2c1CSc1nnc(-c2ccco2)o1 | -14 | . | 102 | 93
CCOC(=O)C1CCN(C(=O)Cn2cccc2C(=O)c2ccccc2)CC1 | -8&16 | 103&99 | 98 | 90
COC(=O)c1ccc(/C=C2/SC(=Nc3ccccc3Cl)NC2=O)cc1 | 0 | 104 | . | .
CCn1cc(-c2nc(-c3ccncc3)no2)c(=O)c2cc(F)c(N3CCC(C)CC3)cc21 | 3 | 106 | . | .
COc1ccc(OC)c(NC(=O)C2CCCN2S(=O)(=O)c2cc3c(cc2C)NC(=O)C(C)O3)c1 (stereo not given) | 9 | 100 | . | .
CC1(C)CC(=O)c2cc(OCC(=O)NCCN3CCOCC3)ccc2O1 | . | 107 | 80 | 90
Cc1ccc(NC(=O)Cn2cnc3ccc(S(=O)(=O)N4CCC(C)CC4)cc3c2=O)cc1F | -5 | 96 | . | .
Cn1c(SCC(=O)NC(=O)c2ccc(OC(F)F)cc2)nc2ccccc21 | -20 | . | 75 | 87
O=C(O)c1cn(-c2ccc(F)cc2)c2cc(N3CCNCC3)c(F)cc2c1=O | -35&-46 | 107 | -0.9* | -0.7*
Next part:
SMILES | HCMV NEC inh | GIV-Gai inh | Sa growth 42C | Sa growth 42C second temp
C=CCn1c(=S)sc2c(SCc3ccc(F)cc3)ncnc21 | . | 100 | 64 | 78
CN(C)S(=O)(=O)n1cc(/C=C(\NC(=O)c2ccccc2)C(=O)NCc2ccco2)c2ccccc21 | . | 103 | 111 | 68
CN(C)S(=O)(=O)c1ccc2c(c1)c(C(N)=O)cn2C | -21 | 99 | . | .
Cc1ccn(CCC(=O)N(C)C(C)CCc2ccco2)n1 (stereo not given) | -22 | 102 | 111 | 68
Cc1ccc(C(=S)N2CCOCC2)cc1 | 0 | 97 | 104 | 101
Cc1nc2ccccc2c(=O)n1Cc1noc(CNC(=O)c2ccccc2)n1 | -25 | 101 | . | .
COc1cc2c(cc1OC)CN(CC(=O)Nc1ccc3c(c1)OC(F)(F)O3)CC2 | -22 | . | 94 | 84
Cc1cc(C)c2cccc(NC(=O)COc3ccc4oc5c(c4c3)CCCC5)c2n1 | . | 102 | 118 | 89
COc1ccc(Br)cc1CNC(=O)c1cc(-c2ccccc2)n(C)c1C | . | 107 | 90 | 59
CSc1nc(C)cc(OCCNC(=O)COc2ccc(Cl)cc2C)n1 | 4 | 100 | 91 | 92
CCCn1c(=O)c2ccccc2n2c(SCC(=O)Nc3ccccc3OC)nnc12 | -10 | 96 | . | .
CCOc1ccc(Nc2nc(N)c(C(=O)c3ccc(Cl)cc3)s2)cc1 | 10 | 109 | . | .
CC(C)c1ccc(-c2nnc3n(CCc4ccccc4)c(=O)c4ccccc4n23)cc1 | 3 | 100 | 133 | 95
CCc1ccc(-c2nc(CS(=O)CC(=O)NCc3ccc(F)cc3)c(C)o2)cc1 (stereo not given) | . | 101 | 113 | 95
COc1ccc(CNC(=O)c2cc3c(=O)n4cccc(C)c4nc3s2)cc1 | -61 | 103 | 104 | 93
CC(C)NS(=O)(=O)c1ccc(CCC(=O)Nc2ccc3c(c2)OCCO3)cc1 | -9 | 107 | 107 | 82
O=c1sc2ccccc2n1CCc1ccccc1 | -14 | 107 | 95 | 81
Cc1c(C#N)c(NC(=O)CSc2ccc(F)c(Cl)c2)n(Cc2ccco2)c1C | -3 | . | 79 | 92
CCOC(=O)C(C)Sc1nnc2cc(C)c3ccccc3n12 (stereo not given) | -34 | 104 | 101 | 83
CCCCC(=O)Nc1nnc(S(=O)(=O)N2CCC(C)CC2)s1 | -12 | 106 | . | .
C=CCNC(=S)Nc1cccc(NC(=O)CC(NCc2ccco2)C(=O)O)c1 (stereo not given) | -16 | 104 | 82 | 93
CC(=O)Nc1ccccc1-c1nc2ccccc2n(C(C)C(=O)Nc2cccc(C)c2C)c1=O (stereo not given) | 18&-10 | 100&101 | 100 | 98
CCOC(=O)c1ccc(NC(=O)C(CC)Sc2nc(N)cc(N)n2)cc1 (stereo not given) | 6 | 106 | 91 | 58
CC(=O)Oc1ccccc1-c1ccccc1 | 1 | 95 | 108 | 105
Nc1ccc(CC(C(=O)O)c2ccccc2)cc1 (stereo not given) | -5 | 102 | 92 | 83
CCCc1nn(-c2ccccc2F)c2c1C(=O)CC(C)(C)C2 | -1 | 102 | 118 | 96
Nc1c(C(=O)c2ccc(Br)s2)oc2ccc(Cl)cc12 | 10 | 109 | . | .
CC(C)C(=O)NC1=NC2C(N=CN2C2CC(O)C(CO)O2)C(=O)N1 (stereo not given) | -8 | . | 106 | 92
O=C(NCC(c1cccs1)S(=O)(=O)c1cccs1)NC1CCCCC1 (stereo not given) | -10 | 98 | 96 | 93
Cc1cc(C)c2cc(C(=O)Nc3ccccc3Cl)[nH]c2c1 | -32 | 104 | 119 | 89
Cc1sc(NC(=O)c2ccco2)c(C2=CC(=O)N(c3ccccc3)C2=O)c1C | 11 | 104 | 109 | 102
CCOC(=O)/C(=N\O)c1c(C)nn(-c2ccc(F)cc2)c1C | 4 | . | 105 | 95
CN(C)CCN(Cc1ccco1)C(=O)c1c2c(nc3ccccc13)C(=O)N(C1CCCCC1)C2 | 4 | 101 | 104 | 103
COc1ccc(C)cc1NC(=O)c1cc(S(=O)(=O)N2CCCCC2)c[nH]1 | . | 106 | 100 | 86
Cc1cc(NC(=O)c2nn(-c3ccc(Cl)cc3)c(=O)c3ccccc23)no1 | -14 | 105 | . | .
CC(C)(C)NC(=O)Nc1ccccc1SCCC#N | 11 | 108 | 107 | 101
O=C(COc1ccccc1)Nc1cccc(C(F)(F)F)c1 | . | 101 | 108 | 89
O=C(O)C1Sc2[nH]c(=O)sc2C2c3ccc(O)cc3OC(=O)C12 (stereo not given) | . | 100 | 113 | 85

Entries listed so far that contain two or more sulfur atoms, in the order listed:
SMILES | HCMV NEC inh | GIV-Gai inh | Sa growth 42C | Sa growth 42C second temp
CN1c2ccccc2-c2nc(SCC(=O)c3ccc4c(c3)OCO4)ncc2S1(=O)=O | -5 | 108 | 88 | 83
CCc1cccc(NS(=O)(=O)c2ccc3c(c2)N(CC(=O)OC)C(=O)CS3)c1 | . | 104 | 102 | 87
CC(OC(=O)c1nsc(Cl)c1Cl)C(=O)NCc1cccs1 (stereo not given) | -1 | 104 | 73 | 87
S=C(Nc1ccccc1)N1CCn2cccc2C1c1cccs1 (stereo not given) | 0 | 101 | 104 | 85
C=CCn1c(=S)sc2c(SCc3ccc(F)cc3)ncnc21 | . | 100 | 64 | 78
CCCCC(=O)Nc1nnc(S(=O)(=O)N2CCC(C)CC2)s1 | -12 | 106 | . | .
O=C(NCC(c1cccs1)S(=O)(=O)c1cccs1)NC1CCCCC1 (stereo not given) | -10 | 98 | 96 | 93
O=C(O)C1Sc2[nH]c(=O)sc2C2c3ccc(O)cc3OC(=O)C12 (stereo not given) | . | 100 | 113 | 85

Screening data: PubChem BioAssay, ICCB-Longwood Screening Facility, Harvard Medical School
